Mtb H37Rv = M. tuberculosis H37Rv growth inhibitors, H37Rv strain (AID 1626); M. tuberculosis H37Rv growth inhibition; higher % means a stronger effect; one-dose inhibition, % at 10 µM; IC50 in µM for titrated hits; 220,000 compounds, 0.95% hits;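 active = confirmed in a dose series; inconclusive = inhibition above 80% but not taken into the dose series; inactive = below 80% or under 30% at every dose of the series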;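 note: bacteria incubated seven days before Alamar blue readout; 0% = bacteria only wells and 100% = bacteria with antibiotic wells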
Arbovirus inh = blocks arbovirus infection; arbovirus infection cell-based antiviral screen; inhibition, % at 10 µM; 200,000 compounds, 0.37% hits; AID 1251;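 active = inhibition from about 30%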;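 note: bluetongue infection of BSR cells; cell survival read as ATP light after 72 h; 0% = infected wells without compound and 100% = uninfected wells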
RecA intein inh = blocks M. tuberculosis RecA intein splicing; P9WHJ3; cell-free RecA intein splicing, fluorescence; inhibition, %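 (about 9 µM by stock and volumes)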; 290,000 compounds, 0.75% hits; AID 2221; in the data active = inhibition above about 30%; inconclusive = no clear call, values can overlap the other calls;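 note: 0% = vehicle wells and 100% = reference inhibitor control wells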
Target sequence (P9WHJ3 whole entry, looked up): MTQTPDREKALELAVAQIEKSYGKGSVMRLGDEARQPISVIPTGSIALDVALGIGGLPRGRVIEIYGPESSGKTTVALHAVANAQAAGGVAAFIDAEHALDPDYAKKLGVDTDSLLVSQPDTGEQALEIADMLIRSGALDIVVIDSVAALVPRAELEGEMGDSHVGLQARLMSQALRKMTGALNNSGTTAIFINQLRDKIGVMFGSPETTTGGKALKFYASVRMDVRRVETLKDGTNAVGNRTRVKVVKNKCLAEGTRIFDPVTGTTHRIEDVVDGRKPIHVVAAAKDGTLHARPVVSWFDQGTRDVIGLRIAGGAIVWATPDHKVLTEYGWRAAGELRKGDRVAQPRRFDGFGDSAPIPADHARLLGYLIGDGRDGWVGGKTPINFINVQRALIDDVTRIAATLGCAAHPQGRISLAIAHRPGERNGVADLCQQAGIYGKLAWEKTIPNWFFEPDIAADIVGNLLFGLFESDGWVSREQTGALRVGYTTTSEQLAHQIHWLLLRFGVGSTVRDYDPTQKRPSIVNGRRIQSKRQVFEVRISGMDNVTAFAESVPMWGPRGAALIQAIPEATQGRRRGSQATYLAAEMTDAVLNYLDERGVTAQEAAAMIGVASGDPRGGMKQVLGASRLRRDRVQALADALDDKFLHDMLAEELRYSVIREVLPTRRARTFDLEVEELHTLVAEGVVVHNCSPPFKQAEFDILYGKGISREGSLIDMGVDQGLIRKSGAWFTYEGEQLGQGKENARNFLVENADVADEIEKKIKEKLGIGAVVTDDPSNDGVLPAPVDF
YopH inh = inhibitors of Yersinia enterocolitica YopH tyrosine phosphatase. 140,000 compounds, 0.16% hits. fluorescence Ex485/Em525. inhibition, %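 (about 10 µM by stock and volumes)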;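 active = inhibition of 50% or more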;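 note: controls were vehicle for no effect and minimum signal wells for full effect; inactives centre near -20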
Mtb betalactam = beta-lactam sensitization of Mtb H37Rv. M. tuberculosis H37Rv growth with meropenem, percent inhibition; hits of this screen are not shown here. AID 434955. inhibition, % at 25 µM. 330,000 compounds, 0.27% hits;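 active = about 74% or more and at least 40 points above the plate without the antibiotic, then above 30% in a dose series; inconclusive = first-round hits that could not be retested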;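 note: growth measured after seven days incubation then overnight dye step; 0% = bacteria only wells and 100% = bacteria with antibiotic; twin plates without the antibiotic show which effects depend on it; some results filed as inactive read as strong as hits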
Arbovirus inh repeat = recorded beside Arbovirus inh, whose call it bears; inhibition, %; measured here: 10K subset replicate screen; many hits read low in the repeat;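 first of two repeat runs on a subset; 0% = infected and 100% = uninfected wells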
Active calls of the source: *; ? = inconclusive; / = not tested or not shown. This is a subset, so the mix of outcomes need not match the whole.

SMILES	Mtb H37Rv	Arbovirus inh	RecA intein inh	YopH inh	Mtb betalactam	others
COc1ccc(NC(=O)C(CCSC)NC(N)=O)cc1NS(=O)(=O)c1ccc(F)cc1 (centres undefined)	-4%	1	13	/	-6
COc1ccc(N=C(c2ccccc2)c2c(C)[nH]n(-c3ccccc3)c2=O)c(OC)c1	14%	/	12	/	-8
O=C(Nc1nnc(COc2ccc(Cl)cc2)s1)c1cccs1	2%	2	1.4	-1	24
CC(C)OC(=O)c1ccc(COC(=O)c2cnccn2)cc1	44%	4	0.9	/	3
Nc1ncnc(Sc2ncccn2)c1[N+](=O)[O-]	55%	-7	6.2	/	/
CC(C)(C)C(=O)O/N=C(\N)c1ccc([N+](=O)[O-])s1	-8%	/	/	/	2
CC12CNCC(C)(CNC1)C2O (centres undefined)	-3%	1	0.0	-10	6	Arbovirus inh repeat=0
CC1=C(C(=O)c2ccccc2)C(c2ccc(N3CCOCC3)cc2)NC(=O)N1 (centres undefined)	9%	7	-1.5	/	1
CCOc1ccccc1CN1C(=O)NC2(CCCCCC2)C1=O	/	/	2.1	/	4
CCOc1ccc(OCCC(=O)OC(C)C(=O)Nc2ccc(C(C)=O)cc2)cc1 (centres undefined)	/	/	0.7	/	-7
CC(=O)Nc1ccc(S(=O)(=O)NC(C)c2nc(-c3ccccc3)no2)cc1 (centres undefined)	/	/	-0.4	/	-2
CC(Oc1cc2oc(=O)c3c(c2cc1Cl)CCC3)C(=O)N1C[C@H]2C[C@@H](C1)c1cccc(=O)n1C2 (some centres undefined)	/	/	-3.1	/	-8
O=c1c2ccccc2nc(-c2ccco2)n1-c1ccc(Br)cn1	4%	4	1.8	-29	-1
FC(F)(F)c1nc(Oc2ccccc2)c2ccccc2n1	7%	4	4.3	-37	-5
COc1ccc(C(C(=O)Nc2ccc(C(C)C)cc2)N(C)C(=O)c2ccc(=O)[nH]c2)cc1 (centres undefined)	-7%	15	-0.5	/	-4
O=C(Nc1ccon1)c1sc2cc(Cl)ccc2c1Cl	/	/	0.9	/	-7
CCc1ccc(Nc2n[n+](C)c(-c3ccncc3)s2)cc1	/	/	3.5	/	95
CCn1c(SCC(=O)Nc2ccc3c(c2)OCO3)nnc1-c1ccccc1O	-8%	-2	-0.7	-28	-1
CCCCOc1ccc(NC(=O)Cn2c(=O)ccc3c(C)cc(C)nc32)cc1	0%	-14	0.5	-15	7
CN(C)C/C(Cl)=C(\Cl)c1ccccc1	-6%	1	2.4	-32	-16
CC(C)c1c(C(=O)N/N=C/c2cccc(OCc3ccccc3)c2)nnn1-c1nonc1N	/	/	2.5	/	6
CCc1ccccc1NC(=O)c1cc(S(=O)(=O)N2CCc3ccccc32)cn1C	/	/	-2.5	/	-5
O=C1c2ccccc2S(=O)(=O)c2cc(N3CCc4ccccc4C3)ccc21	2%	/	-20	/	12
Cc1cc(Cl)ccc1NC(=O)CN1CCN(C(=O)c2ccco2)CC1	/	/	-0.3	/	-1
COc1ccc(CCNC(=O)COc2ncnc3ccccc23)cc1	-3%	6	-0.9	/	-8
COC(=O)C1CC23C=CCN4CCC5(c6ccccc6NC15C2C)C43 (centres undefined)	/	/	-4.4	/	5
CCCN(CCC)CCCNC(=O)C1CCC(CNS(=O)(=O)c2cccc3nsnc23)CC1 (centres undefined)	/	/	-4.0	/	4
O=C(OCc1nc2ccccc2s1)C1CCN(C2=NS(=O)(=O)c3ccccc32)CC1	3%	-1	-0.6	-22	-2
CC1C(=O)Nc2ccccc2N1C(=O)c1ccc(Cl)c(Cl)c1 (centres undefined)	/	/	2.3	/	0
CC(=O)N1CCc2c(sc(NC(=O)CCS(=O)(=O)c3ccccc3)c2C(N)=O)C1	/	/	3.6	/	?

Retrieved by compound from the entries so far:
SMILES	Mtb H37Rv	Arbovirus inh	RecA intein inh	YopH inh	Mtb betalactam	others
COc1ccc(CCNC(=O)COc2ncnc3ccccc23)cc1	-3%	6	-0.9	/	-8
CC1C(=O)Nc2ccccc2N1C(=O)c1ccc(Cl)c(Cl)c1 (centres undefined)	/	/	2.3	/	0
O=C1c2ccccc2S(=O)(=O)c2cc(N3CCc4ccccc4C3)ccc21	2%	/	-20	/	12
O=C(OCc1nc2ccccc2s1)C1CCN(C2=NS(=O)(=O)c3ccccc32)CC1	3%	-1	-0.6	-22	-2
O=C(Nc1ccon1)c1sc2cc(Cl)ccc2c1Cl	/	/	0.9	/	-7
CCCN(CCC)CCCNC(=O)C1CCC(CNS(=O)(=O)c2cccc3nsnc23)CC1 (centres undefined)	/	/	-4.0	/	4
CC(C)c1c(C(=O)N/N=C/c2cccc(OCc3ccccc3)c2)nnn1-c1nonc1N	/	/	2.5	/	6

(list continues)
SMILES	Mtb H37Rv	Arbovirus inh	RecA intein inh	YopH inh	Mtb betalactam	others
Cc1nnc2sc(SCc3ccc(Cl)cc3)nn2c1=O	-6%	15	4.4	-27	-3
CC(C)N1CCC2(CC1)C(C#N)=C(N)NC(S)=C2C#N	13%	4	-1.1	-4	2
O=C(O)c1cc(Cl)c2ccccc2c1O	-7%	13	2.5	-17	-7
CCc1ccc(-n2c(O)c(C(C)=O)c(=O)[nH]c2=O)cc1 (tested in a mixture with another compound)	2%	/	/	/	-6
N#CC(c1ccc(O)cc1)c1ncc(C(F)(F)F)cc1Cl (centres undefined)	-6%	1	-2.7	/	2
Fc1ccc(NC(=S)NCc2ccccc2)cc1	/	/	-0.2	/	-3
O=C(c1ccc2nc(Cc3cccc(Cl)c3)oc2c1)N1CCC(O)CC1	/	/	42*	/	-7
CSc1cccc(NC(=O)Nc2ccc(Cl)cc2)c1	-1%	9	5.7	-36	0
O=S(=O)(NC1CC1)c1ccc(S(=O)(=O)N2CCCC(c3nc(-c4cccnc4)no3)C2)cc1 (centres undefined)	11%	27	-1.4	-24	4
O=C1CSC(c2ccccc2)N1c1nnc(C23CC4CC(CC(C4)C2)C3)s1 (centres undefined)	-1%	-4	/	-2	/
COc1cccc(NC(=O)CCc2nnc3ccc(NCc4ccco4)nn23)c1	/	/	-1.8	/	9
C=CC[C@@]12C=C(OC)C(=O)C(OC)=C1O[C@H](c1ccc3c(c1)OCO3)[C@H]2C	18%	/	3.0	/	-8
CCN(CC)CCOC(=O)c1ccc(NC(=O)CCCN2C(=O)/C(=C\c3cccs3)SC2=S)cc1	/	/	17	/	51
NS(=O)(=O)c1cc(C(=O)OCC(=O)Nc2ccc(Cl)cc2[N+](=O)[O-])ccc1Cl	3%	-2	4.2	/	-1
CCOC(=O)N1CCN(C(=O)CSc2nnc3[nH]c(=O)c(C)c(C)n23)CC1	/	/	-4.2	/	1
COc1ccc(N(CC(=O)Nc2ccccc2OC)S(=O)(=O)c2ccc(OC)c(OC)c2)cc1	/	/	2.9	/	5
Cc1cc(C)cc(NS(=O)(=O)c2cc(C(=O)NCc3ccccn3)ccc2Cl)c1	-2%	-1	9.6	-23	1
O=C(c1ccccc1F)N1CCN(S(=O)(=O)c2ccc3c(c2)OCCO3)CC1	1%	24	0.8	5	4	Arbovirus inh repeat=15
CC1CCOC2(O1)C(=O)Nc1ccccc12 (centres undefined)	6%	5	9.1	/	-2
COc1ccc(N=C2SC(CC(=O)Nc3ccccc3)C(=O)N2CC2CCCO2)cc1 (centres undefined)	8%	-25	/	1	-6
Cc1cc(OCCCC(=O)NCc2cccs2)ccc1Cl	0%	9	2.4	-40	-1
CC(=O)c1cccc(NC(=O)C(C)OC(=O)Cc2n[nH]c(=O)c3ccccc23)c1 (centres undefined)	/	/	1.5	/	-3
CCN(CC)S(=O)(=O)c1cccc(-c2n[nH]c(=S)n2/N=C/c2ccc(Br)cc2)c1	3%	17	-1.1	-29	-1
O=C(NC1CCCCCC1)c1cc(S(=O)(=O)N2CCCCC2)ccc1N1CCOCC1	7%	0	2.9	/	1
COc1ccc(C(=O)O)cc1S(=O)(=O)N1CCN(c2ccccn2)CC1	/	/	-2.6	/	0
c1ccc(-c2nc(N3CCOCC3)sc2-c2ccccc2)cc1	/	/	19	/	20
COc1cccc(NC(=O)CN(C)C(=O)c2cc(-c3cccc(Br)c3)nc3ccccc23)c1	/	/	1.2	/	-4
CNc1c(NS(=O)(=O)c2cc(NC(C)=O)ccc2C)c(=O)oc2ccccc12	/	/	-0.5	/	2
CCc1nnc(NC(=O)c2ccc(-c3ccc(Cl)cc3)o2)s1	3%	-20	-3.8	8	0
CCC1Oc2ccc(C)cc2N(CC(=O)NC2CCCCC2)C1=O (centres undefined)	/	/	-0.1	/	-4
COc1cccc(/C=C2/C(=O)NN(c3ccc(C)c(C)c3)C2=O)c1	/	/	-3.5	/	3
Cc1cc(C)c(-n2nnnc2SC(C)C)c(C)c1	-1%	5	-3.5	-19	-1
CCc1ccc(-c2cc(C)no2)cc1S(=O)(=O)Nc1ccc(Cl)cn1	/	/	8.6	/	4
Cc1ccc(OCC(O)CN2CCCC2)cc1 (centres undefined)	/	/	-2.2	/	-6
O=[N+]([O-])c1nn(-c2ccccc2)[n+]([O-])c1N1CCN(c2ccccc2F)CC1	5%	0	-2.5	/	3
Cc1nc2sc(C(c3ccco3)N3CCOCC3)c(O)n2n1 (centres undefined)	-8%	5	-2.9	-22	1
COC(=O)C(O)(CC(=O)Nc1cc(OC)c(OC)c(OC)c1)C(F)(F)F (centres undefined)	-5%	10	2.2	-29	-6
N#C/C(=C\c1cn(CCOc2ccccc2)c2ccccc12)C(=O)NCc1ccco1	0%	1	-2.9	-32	0
O=C(O)C1CCCCC1C(=O)NCCc1ccncc1 (centres undefined)	-6%	-1	-2.6	-19	2
CCOC(=O)c1c(S(=O)(=O)NCc2ccco2)c(C)n(C)c1C	/	/	0.6	/	8
CCN(CC)S(=O)(=O)c1cc(NC(=O)C(C)N(C)CC(=O)Nc2c(C)cccc2C)ccc1C (centres undefined)	3%	-11	2.7	-20	-5
CC1C(=O)N2CCCc3cc(NC(=O)C(=O)NCc4ccccn4)cc1c32 (centres undefined)	/	/	-1.0	/	3
Cc1cccc2sc(NC(=O)CSc3nnnn3C)nc12	/	/	0.8	/	?
Cc1c(NC(=O)NC(C)N2C(=O)C3C4C=CC(C4)C3C2=O)c(=O)n(-c2ccccc2)n1C (centres undefined)	-16%	-2	-3.4	-39	9
COc1cc(C(=O)OCC(=O)NC(=O)C2CCCCC2)ccc1OC(F)F	0%	6	2.2	/	-4
O=[N+]([O-])c1ccc(CN2C=NS(=O)(=O)c3ccccc32)cc1	3%	1	0.1	/	-1
O=C(Nc1ncc(Cc2ccccc2Cl)s1)C1=NCCN1	3.7µM*	-17	-0.5	-11	97
Oc1cccc(/C=N/NP(=S)(c2ccccc2)c2ccccc2)c1	1%	-41	4.0	-27	3
CCOc1ccc(N=Nc2c(=O)[nH]n3c(C)cc(C)nc23)cc1	?	-24	4.9	-8	45
C/C(=N\NC(=O)CC(C)C)c1c(C(F)(F)F)[nH]n(-c2nc3ccccc3s2)c1=O	-5%	/	-2.7	/	99
CCCCNC(=O)CN(c1cc(C(F)(F)F)ccc1Cl)S(C)(=O)=O	-1%	-7	0.6	-23	-4
CCOC(=O)c1c(-c2ccc(C)o2)csc1NC(=O)CSc1nncs1	-4%	-8	5.4	-11	1
CCCCn1c(O)c(C(CC)=Nc2ccc3c(c2)CCC3)c(=O)[nH]c1=O	75%	-4	1.5	-11	97
O=C(O)CC1(CC(=O)Nc2cc3ccccc3cn2)CCCCC1	-18%	/	0.7	/	-1
Nc1cc(C(=O)O)c(Oc2ccc(Cl)cc2Cl)cc1C(=O)O	-6%	7	-1.0	-27	-5
COc1ccc(CN2CCn3ncc(C(=O)Nc4ccc(Cl)cc4Cl)c3C2=O)cc1	-6%	1	-0.2	14	10
CCC(=O)Nc1cccc(-n2nnnc2SCC(=O)NCc2ccco2)c1	-7%	10	-0.7	-5	-23
Cc1cc(C(=O)NC2=NCCS2)cs1	-3%	-1	4.6	12	-5
CCN1C(=O)[C@H]2[C@@H](c3ccc(C)cc3)N3C(=O)N(c4ccc(C(F)(F)F)cc4)C(=O)[C@@]3(CC(C)C)[C@H]2C1=O	/	/	3.3	/	5
CCn1c(=O)c(C(=O)CN2CCc3ccccc32)c(N)n(Cc2ccccc2)c1=O	5%	9	7.5	-24	-2
Continued:
SMILES	Mtb H37Rv	Arbovirus inh	RecA intein inh	YopH inh	Mtb betalactam	others
CCSc1n[nH]c2nc3c(c(=O)n12)C1(CCCCC1)Cc1ccccc1-3	-1%	/	-14	/	0
CNC(=S)N/N=C1\CC(c2ccccc2)Oc2ccccc21 (centres undefined)	8%	-5	-2.3	/	0
CCOc1ccccc1NC(=O)CN1CCc2ccccc2C1	/	/	4.6	/	-3
CN1C(=O)[C@H]2[C@@H](C3CC3)N3C(=O)CN(Cc4ccccc4)C(=O)[C@@]3(C)[C@H]2C1=O	/	/	-0.4	/	-9
Cc1cc2oc(=O)c(CC(=O)NCCCN(C)C)c(C)c2c2occ(C(C)(C)C)c12	/	/	-0.2	/	11

Compound activity (PubChem BioAssay)
